Screening data: PubChem BioAssay, several laboratories
B2AR ag = human beta-2 adrenergic receptor agonism by FAP; 0.43% of 340,000 active; Am2.2-beta2AR cells, FAP receptor internalization, flow cytometry; reference of the scale not given here; P07550; response, % (test concentration not listed); AID 504454;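 active means response above a set limit, near 3 SD of response in nonfluorescent compounds, cut at about 42% in these data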;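 further: stock transfer was 100 nL into about 11 µL; a reference agonist was the positive control; negative values mostly stem from fluorescent compounds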
Target sequence (P07550 whole entry, looked up): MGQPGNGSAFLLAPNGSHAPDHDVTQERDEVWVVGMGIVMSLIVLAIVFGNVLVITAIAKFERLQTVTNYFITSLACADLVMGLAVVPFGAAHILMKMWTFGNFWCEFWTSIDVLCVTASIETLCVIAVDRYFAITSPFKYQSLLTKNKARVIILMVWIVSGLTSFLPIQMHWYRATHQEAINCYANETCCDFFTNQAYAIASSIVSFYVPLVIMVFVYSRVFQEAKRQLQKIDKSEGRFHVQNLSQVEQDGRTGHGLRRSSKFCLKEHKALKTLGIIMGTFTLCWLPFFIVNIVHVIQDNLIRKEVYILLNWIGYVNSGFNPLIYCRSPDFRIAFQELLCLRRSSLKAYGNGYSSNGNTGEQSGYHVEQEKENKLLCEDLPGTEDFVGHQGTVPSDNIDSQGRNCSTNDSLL
Ecoli growth = inhibitors of Escherichia coli growth | 0.21% of 330,000 active | AID 1053175 | OD600, 23 h; hits give low values | OD600 absorbance (concentration not given with the values);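 active means OD600 absorbance below the run mean of sample wells minus 3.6 SD, in any replicate, cut at about 0.56 in these data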;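 further: stock transfer was 300 nL into about 60 µL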
FGF22 binding = shifts melting point of recombinant human FGF22. Q9HCT0. recombinant FGF22 thermal shift, SYPRO orange fluorescence; percent of sucrose octasulfate shift, DMSO zero. calls only at 9.99 µM. 1.5% of 340,000 active. AID 651658;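 active means melting point raised past a set limit in the mean and every replicate; three in four hits are not shown here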
Target sequence (Q9HCT0 whole entry, looked up): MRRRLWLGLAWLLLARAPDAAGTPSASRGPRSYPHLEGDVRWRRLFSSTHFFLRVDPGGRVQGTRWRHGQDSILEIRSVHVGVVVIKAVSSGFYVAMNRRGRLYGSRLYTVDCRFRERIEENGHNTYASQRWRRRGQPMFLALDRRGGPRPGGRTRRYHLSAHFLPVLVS
ALR inh = blocks human ALR sulfhydryl oxidase activity | P55789 | purified ALR, DTT oxidation, H2O2 HRP-luminol luminescence | inhibition, % (test concentration not listed) | 3.8% of 290,000 active | AID 485317;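 active means mean and each replicate at 75% or more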;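 further: stock transfer was 7.5 nL into about 7.5 µL; 0% = neutral wells and 100% = wells with inactivated enzyme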
HNF4A DNA FP = change in binding of human HNF4 alpha to DNA; activity change, % at 10 µM; AID 1224865; HNF4a-FITC DNA binding, fluorescence polarization, 1 h; P41235; 0.3% of 360,000 active; in the data active means activity change above about 30%, passing the limit was not always enough;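 further: controls were the assay level and a saturating level of protein; the project sought stronger binding though the title names inhibitors; some compounds called inactive have numbers as strong as hits; positive values seem to mean higher polarization but the record does not say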
Target sequence (P41235 whole entry, looked up): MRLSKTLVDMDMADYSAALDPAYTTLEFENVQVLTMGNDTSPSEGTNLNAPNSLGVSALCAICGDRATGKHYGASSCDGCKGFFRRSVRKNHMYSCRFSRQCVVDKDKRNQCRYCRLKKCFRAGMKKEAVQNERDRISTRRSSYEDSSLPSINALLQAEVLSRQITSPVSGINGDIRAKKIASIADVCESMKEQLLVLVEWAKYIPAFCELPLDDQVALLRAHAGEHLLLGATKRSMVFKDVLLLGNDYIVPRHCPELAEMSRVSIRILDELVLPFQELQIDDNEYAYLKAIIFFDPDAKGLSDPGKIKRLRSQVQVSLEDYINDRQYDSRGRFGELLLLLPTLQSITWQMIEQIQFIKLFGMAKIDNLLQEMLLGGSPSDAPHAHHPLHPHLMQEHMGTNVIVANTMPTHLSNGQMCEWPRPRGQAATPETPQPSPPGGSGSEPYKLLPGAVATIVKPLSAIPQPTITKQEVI
UCH37 inh = blocks the human deubiquitinase UCH37 | Q9Y5K5 | purified proteasome/UCH37, Ub-AMC cleavage fluorescence | inhibition, % (no concentration beside the values) | 0.33% of 330,000 active | AID 588478;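 active means mean of two replicates above 20%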;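 further: 0% = compound-free wells with enzyme and 100% = wells lacking proteasome; stock transfer was 100 nL into about 20 µL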
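Assay system: Proteasome-bound UCH37. Buffer or medium: pH 7.4 Tris-HCl (50 mM) with ovalbumin, ATP-MgCl2, DTT. Incubation: 30 min preincubation with enzyme, 25 min cleavage at room temperature. Measured by: fluorescence, ex 355 nm, em 460 nm. Read-out basis: percent inhibition. Control set: wells without proteasome as full block, compound-free enzyme plus substrate as uninhibited.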
LANA-H2B inh = blocks KSHV LANA binding to histone H2A/H2B | Q9QR71 | cell-free LANA-H2A/H2B peptide, fluorescence polarization | inhibition, % (no concentration beside the values) | 0.6% of 320,000 active | AID 2629; in the data active means inhibition mostly above about 10%, no sharp cut-off; inactive means mostly below about 6.7%;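 further: stock transfer was 7.5 nL into about 10 µL; 0% = median of vehicle wells and 100% = median of positive control wells; one replicate is shown; the record names a cut of 25% in any replicate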
* hit, by the source's call; i = inactive; nt = no result given; + = active, no number. Some of the compounds tested, so the mix of outcomes need not match the whole.

SMILES	B2AR ag	Ecoli growth	FGF22 binding	ALR inh	HNF4A DNA FP	UCH37 inh	LANA-H2B inh
COc1ccc(C2(C(=O)Nc3ccc(C(=O)N4CCOCC4)cc3)CCOCC2)cc1	2	0.74	nt	-6	2.4	3.2	-5.3
CCCCN(C1CCS(=O)(=O)C1)S(=O)(=O)c1ccc(C(C)C)cc1 (stereo unspecified)	8	0.65	i	-1	2.5	5.8	7.8
O=C(CSC1=N/C(=C/c2ccco2)C(=O)N1c1ccc(OC(F)F)cc1)NC1CCS(=O)(=O)C1 (stereo unspecified)	-1	0.68	i	14	24	3.4	-12
CCOc1ccc(S(=O)(=O)N2CCN(C(=O)c3cc4c(s3)CCCC4)CC2)cc1	-13	0.7	nt	-3	-4.5	3.2	-4.0
O=C(O)CC1c2ccccc2CCN1S(=O)(=O)c1ccccc1 (stereo unspecified)	-3	0.64	i	-3	1.4	1.6	2.5
c1ccc(-c2csc(NC3=NCCCCC3)n2)cc1	3	0.66	nt	-9	4.3	4.7	-0.8
CN1CCN(CCCNC(=O)Cn2nc(-c3ccccc3)ccc2=O)CC1	-2	0.66	nt	nt	-0.5	1.4	0.7
Cc1ccc(C(=O)N/C(=C/c2cn(-c3ccccc3)nc2-c2ccccc2)C(=O)O)cc1	-11	0.68	i	11	-1.0	3.7	-2.3
Cc1cc(=O)oc2cc(OC(=O)CCCCCN3C(=O)c4ccccc4C3=O)ccc12	0	nt	nt	11	-0.6	nt	-0.7
CC(=O)N1CCN(c2ccc(S(=O)(=O)N3CCCCC3)cn2)CC1	-3	0.64	nt	3	2.2	-0.2	-2.3
O=C(/C=C/c1ccc(S(=O)(=O)N2CCOCC2)cc1)NC(CO)C(O)c1ccc([N+](=O)[O-])cc1 (stereo unspecified)	-1	0.69	i	2	1.4	2.4	7.4
O=C(CCN1C(=O)c2ccccc2C1=O)N1CCN(Cc2ccccc2)CC1	-2	0.66	i	2	-2.8	0.3	1.6
O=C(NNC(=O)c1ccccc1O)c1ccc(NS(=O)(=O)c2ccc(F)cc2)cc1	-1	0.65	i	13	0.8	-0.9	-0.6
O=c1[nH]c2ccc(S(=O)(=O)Nc3ccc(Cl)cc3)cc2[nH]1	-5	0.7	i	-1	8.5	-0.2	-0.4
Cc1onc(-c2c(F)cccc2Cl)c1C(=O)Nc1nnc(C2CC2)s1	-3	0.7	nt	0	0.8	1.2	-0.4
O=C(Nc1ccc(S(=O)(=O)N2CCOCC2)cc1)c1ccc2ncsc2c1	14	0.69	i	nt	8.6	1.7	-1.6
C=CCN1C(=O)C(CC(=O)NCC)SC1=Nc1ccccc1CC (stereo unspecified)	2	0.62	i	-2	2.1	3.9	-3.1
COc1ccc(C(C)=O)cc1COC(=O)c1ccc2c(c1)OCCO2	-5	0.7	i	0	3.2	0.9	-494
Cc1c(O)ccc2c(CN3CCN(C/C=C/c4ccccc4)CC3)cc(=O)oc12	18	0.61	i	nt	-1.8	-265	-1.5
CC(C)(C)C(=O)NC1(C(F)(F)F)NC(=O)N(c2ccc(F)cc2)C1=O (stereo unspecified)	-1	0.66	i	-3	7.0	-1.5	-0.7
Cc1cc(C)cc(NC(=O)Cn2nnc(C(=O)NCc3cccs3)c2N)c1	-2	0.65	i	3	0.5	6.0	-3.6
Nc1c(C(=O)NC2CCCCC2)nsc1C(=O)OCC(=O)NC1CCCCC1	-7	0.7	nt	-5	3.5	-22	4.1
Cc1nnc(SCC(=O)NCCOc2ccc(Cl)cc2)n1-c1ccccc1	-6	0.7	nt	-12	-0.3	-3.4	-1.9
CCC(=O)N1c2ccc(S(=O)(=O)N3CCN(c4ccccc4Cl)CC3)cc2CC1C (stereo unspecified)	-5	0.74	i	-7	0.0	1.3	-0.7
Cc1nnc(NC(=O)c2ccccc2NC(=O)c2ccccc2)s1	0	0.65	i	-1	-0.9	-95	-0.7
O=C(c1ccc(F)cc1)c1cnc(Nc2ccccc2)s1	-4	0.71	i	-4	-4.0	-8.7	8.9
CC(=O)C1=C(C)NC(SCC(N)=O)=C(C#N)C1c1ccco1 (stereo unspecified)	-6	0.67	i	-18	0.5	7.7	-3.3
COCCCNC(=O)CS(=O)(=O)Cc1nc(-c2ccccc2C)oc1C	3	0.73	i	10	0.1	2.1	4.0
COc1ccccc1CNC(=O)CN1C(=O)c2cccc(N)c2C1=O	-2	0.64	nt	-5	-8.6	-202	2.5
CCC(C)NS(=O)(=O)c1ccc(S(=O)(=O)Nc2cc3c(cc2C(C)=O)OCO3)cc1 (stereo unspecified)	12	0.73	nt	-5	3.6	2.6	-2.6
COC(=O)CSc1nnc(-c2ccc(S(=O)(=O)NCc3cccs3)cc2)o1	21	0.66	nt	-17	-1.5	3.8	-3.9
COc1ccc(Cn2nnnc2C(c2ccccc2)N2CCN(C3CCCC3)CC2)cc1 (stereo unspecified)	-5	0.72	nt	nt	0.8	3.1	nt
NS(=O)(=O)c1cccc(NC(=O)COC(=O)CCN2C(=O)c3ccccc3C2=O)c1	-10	0.64	i	1	-2.0	5.2	1.6
O=C(c1ccccc1)N1CCCCCC1	-1	0.65	nt	-2	-3.7	0.6	-0.6
Cc1ccccc1CSc1nncn1N	3	0.72	nt	-9	1.9	4.9	0.1
O=c1[nH]c2cc3c(cc2cc1CN(CCO)S(=O)(=O)c1ccccc1Cl)OCCO3	-3	0.71	nt	-26	-1.8	-83	5.4
CC(=O)NC12CC3CC(C1)CC(C(=O)N(C)CC(=O)Nc1ccc(F)c(F)c1F)(C3)C2	2	0.66	i	nt	2.9	1.7	-0.3
O=C(CN(Cc1ccco1)C(=O)c1cccc(Cl)c1)Nc1c(Cl)cc(Cl)cc1Cl	-7	0.7	nt	2	-5.9	5.2	3.1
CC(=O)NC(=S)Nc1ccc(NC(=O)COc2ccc(Cl)cc2Cl)cc1	-16	0.77	nt	-12	8.1	6.8	2.3
COc1ccc(NC(=O)CN(C)C(=O)c2cn(-c3ccccc3)nc2-c2cccnc2)cc1	1	0.7	+	-3	4.5	2.6	0.0
O=C(O)COc1ccccc1/C=N/NC(=O)c1ccc(F)cc1	0	nt	i	34	-4.3	nt	-3.2
COc1cccc(N2CCN(C(=O)NC3CCCCC3)CC2)c1	1	0.74	nt	77*	3.8	-3.5	4.0
CN(C)/N=C/C=C1\CC/C(=C\c2ccc(Br)cc2)C1=O	0	nt	nt	nt	29	nt	-2.2
O=C(O)C(O)(c1ccccc1)C(O)c1ccccc1 (stereo unspecified)	0	0.68	i	-1	-4.0	4.4	-3.6
CC1CCN(CCNC(=O)CCS(=O)(=O)c2ccc(Br)cc2)CC1	-4	0.67	nt	-3	-2.1	2.9	1.2

Single records (already shown):
CC1CCN(CCNC(=O)CCS(=O)(=O)c2ccc(Br)cc2)CC1 across the screens: B2AR ag = -4; Ecoli growth = 0.67; FGF22 binding = nt; ALR inh = -3; HNF4A DNA FP = -2.1; UCH37 inh = 2.9; LANA-H2B inh = 1.2
CN(C)/N=C/C=C1\CC/C(=C\c2ccc(Br)cc2)C1=O across the screens: B2AR ag = 0; Ecoli growth = nt; FGF22 binding = nt; ALR inh = nt; HNF4A DNA FP = 29; UCH37 inh = nt; LANA-H2B inh = -2.2

Other results follow:
SMILES	B2AR ag	Ecoli growth	FGF22 binding	ALR inh	HNF4A DNA FP	UCH37 inh	LANA-H2B inh
CCc1ccc(-c2csc(NC(=O)C3CCCO3)c2C(=O)OC(C)C)cc1 (stereo unspecified)	15	0.72	nt	-2	1.4	3.2	-9.6
CCNC(=O)CC1C(=O)N(c2ccc(F)cc2)C(=O)N1CCc1sccc1C (stereo unspecified)	3	0.74	nt	-11	-4.7	-1.0	-1.7
CC(C)n1nc(C(=O)NCCCN2CCCC2=O)c2ccccc2c1=O	-2	0.69	i	0	5.7	1.6	-4.1
O=C(c1ccco1)N1CCN(CC2CC3C=CC2C3)CC1 (stereo unspecified)	1	0.74	nt	2	2.0	1.5	8.7
Cc1ccc(-n2nc3c(=O)n(CCCC(=O)NCCc4ccccc4)nc(C)c3c2C)cc1	-12	0.68	i	-1	3.1	2.7	0.1
O=C(NCCCCCc1nc2ccccc2[nH]1)c1ccccc1Cl	-3	0.59	i	-10	2.4	0.9	-0.7
CC(Oc1ccc(Cl)cc1Cl)C(=O)N(C)c1ccccc1 (stereo unspecified)	-4	0.7	i	-4	-3.5	6.2	-2.2
OCC1(CCOc2ccccc2)CCN(Cc2cn[nH]c2-c2ccc(F)cc2)CC1	7	0.74	nt	-7	3.5	-1.5	-1.3
Cc1ccc(O)c(Cn2nnc3ccccc32)c1	-8	0.63	i	67	3.6	3.5	-1.0
Cc1nc(C)c(C(=O)OCC(=O)N2CCN(c3ccccc3)CC2)s1	-3	0.74	nt	60	2.1	2.6	-4.7
CC(=O)Nc1ccc(S(=O)(=O)NCCC(=O)OCC(=O)N2CCN(C(=O)c3ccco3)CC2)cc1	3	0.67	i	0	-4.2	1.7	3.1
Cc1ccc(-c2n[nH]c(=O)c3ccccc23)cc1S(=O)(=O)NCC1CCCO1 (stereo unspecified)	8	0.67	i	-10	1.5	3.8	0.5
Cc1ccc(S(=O)(=O)N2CCOCC2)cc1NC(=O)COC(=O)c1ccc(OCc2c(C)noc2C)cc1	8	0.67	i	-10	1.4	0.8	1.2
Cc1nonc1NC(=O)CSc1nnc(-c2ccoc2C)n1CC(C)C	-6	0.74	nt	-4	-4.2	1.8	-4.5
Cc1ccc2[nH]c3c(c2c1)CN(C(=O)CN1c2ccc(F)cc2CCC1C)CC3 (stereo unspecified)	3	0.7	nt	-13	12	-1.2	0.3
CCn1nnnc1SCC(=O)N1CCc2ccccc21	-5	0.69	nt	-6	-2.2	4.5	1.0
CCN(CCNC(=O)CC1Oc2ccccc2NC1=O)c1ccccc1 (stereo unspecified)	-4	0.74	i	97*	-5.3	1.9	3.4
Cc1ccc(N2C(=O)S/C(=C/c3cn(C)c4ccccc34)C2=O)cc1	-16	0.7	i	0	1.1	0.8	2.8
COCc1c(Br)c(C)nc(OCC(=O)O)c1C#N	-1	0.7	nt	-1	1.8	5.3	3.3
Cc1c(NC(=O)c2ccc3c(c2)OCO3)cccc1-c1nc2ccccc2s1	-6	0.71	nt	nt	-4.4	3.8	-3.5
CCOC(=O)C1(Cc2ccccc2Cl)CCN(C(=O)c2cnccn2)CC1	-12	0.66	nt	-1	-2.6	1.2	-5.9
COc1nnc(-c2ccc(N3CCOCC3)c(NC(=O)C3CCCCC3)c2)c2ccccc12	0	0.69	nt	-1	-0.1	2.1	4.2
CN(C)CCNc1nc2sc3c(c2c(=O)n1-c1ccccc1)CCCCC3	-10	nt	i	2	1.3	nt	-2.8
O=C(Cc1ccc(S(=O)(=O)N2CCOCC2)s1)NCCC(c1ccccc1)c1ccccc1	2	0.77	nt	0	2.9	2.9	1.7
CCc1nnc2n1N=C(c1ccc(Cl)cc1)CS2	-2	0.66	i	-3	-0.3	1.9	0.0
Cc1ccc(-n2c(CCc3ccccc3)n[nH]c2=S)cc1C	1	0.66	i	25	-0.1	2.2	1.7
Cc1cc2c(c(/C=C/C(=O)c3ccccc3)c1)OC1(C=C2)Oc2ccccc2C(=O)N1C (stereo unspecified)	5	0.68	i	-7	-3.9	4.1	0.2
Cc1ccccc1C(=O)NNC(=O)C1CCN(c2ncccn2)CC1	-9	0.67	i	nt	-0.3	-0.9	-3.7
O=C(CN1C(=O)COc2ccc(S(=O)(=O)N3CCCCC3)cc21)NCc1ccc(Cl)cc1	12	0.66	i	-3	1.5	6.3	3.8
Cc1ccc(NC(=O)CSCC(N)=O)cc1C	8	0.67	nt	-41	-6.8	1.3	-5.8
CSc1nsc(SC)c1NC(=O)N1CCCC1	7	0.64	nt	-9	-1.9	0.3	1.5
O=C(CSc1nnc(-c2ccccn2)n1Cc1ccccc1)N1CCOCC1	-9	0.68	nt	-5	2.7	-0.2	-2.6
